YB-1 expr inh: YB-1 expression inhibition | U2OS, qRT-PCR YB-1 vs CDIP delta delta Cp, 16 h; hits give high values; zero = DMSO, each unit about twofold | delta delta Cp (YB-1 minus CDIP) (test concentration not listed) | hit rate 0.37% among 30,000;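 active means delta delta Cp rounded down to an integer at or above 3, about 3 SD of DMSO wells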;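 further: higher means less YB-1 transcript or more CDIP transcript relative to DMSO; stock transfer was 100 nL into about 100 µL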
PD-1 reverse act: activators reversing PD-1 mediated T-cell inhibition; primary human CD4 T cells, PD-L1 beads, CellTiter-Glo 96 h; 29,000 tested, under 10 active; activation, % (concentration not given with the values); AID 2316;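 active means replicate mean of 50% or more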;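 further: 0% = median vehicle wells and 100% = positive control; 100 nL library stock added to about 50 µL; numbers are from one replicate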
MITF inh: blocks MITF activity; hit rate 0.28% among 37,000; inhibition, % (test concentration not listed); TRPM1 promoter luciferase, luminescence, 24 h; AID 2240;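 active means most replicates at 85% or more, or half of them and the mean; inconclusive means half reach 85% but not the mean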;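 further: human melanocyte line stably carrying TRPM1 promoter luciferase reporter; 0% = vehicle wells and 100% = a positive control; the first replicate is given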
Shh pathway inh: Sonic Hedgehog pathway inhibition; inhibition, % (concentration not given with the values); AID 2313; hit rate 2.1% among 22,000; Shh-LIGHT2 Gli-luciferase reporter, 30 h;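 active means replicate mean of 65% or more; inconclusive means mean lower but half the replicates past it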;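 further: pathway switched on by Shh-conditioned medium diluted 1 in 25 in low serum; 100 nL library stock added to about 40 µL; 0% = median of neutral wells and 100% = positive control level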
Numbers without * were called inactive; ? = inconclusive; . = not tested or not shown.

mol	YB-1 expr inh	PD-1 reverse act	MITF inh	Shh pathway inh
CCCN(C)C[C@@H]1OCCCC[C@@H](C)Oc2ccc(NC(=O)CCCN(C)C)cc2C(=O)N([C@H](C)CO)C[C@@H]1C	-0.047	.	15	-7
CC(Oc1ccccc1)C(=O)N[C@@H]1C(=O)N2[C@@H]1SC(C)(C)[C@@H]2C(=O)O (some centres undefined)	-0.007	.	-6	-7
Cc1noc(C)c1S(=O)(=O)Nc1ccc2c(c1)C(=O)N([C@H](C)CO)C[C@@H](C)[C@H](CN(C)Cc1ccc(C(=O)O)cc1)O2	-0.17	0.3	7	-9
Cc1noc(C)c1NC(=O)N(C)C[C@@H]1OCCCC[C@@H](C)Oc2ccc(NC(=O)CCC(F)(F)F)cc2C(=O)N([C@H](C)CO)C[C@@H]1C	0.34	0.6	3	-37
Nc1nc(CSc2nnc3c(n2)[nH]c2ccccc23)cs1	0.013	0.3	-52	.
CCOC(=O)c1cnn(C(=O)Cc2cccc(OC)c2)c1N	5.2*	0.1	-23	-19
O=C(COc1ccc(C(=O)Nc2ccc(F)cc2)cc1)Nc1ccccc1C(F)(F)F	.	2.7	0	.
C[C@H](CO)N1C[C@H](C)[C@@H](CN(C)S(=O)(=O)c2cn(C)cn2)Oc2ccc(NC(=O)Nc3ccccc3)cc2C1=O	0.13	.	7	-53
COc1ccc(OCC(=O)Nc2ccccc2C(=O)Nc2ccc(C(=O)O)cc2)cc1	.	2.8	-11	.
COc1cccc(CNc2nc3ccccc3n2C)c1OC	.	-0.1	-67	.
C[C@H](CO)N1C[C@H](C)[C@H](CN(C)Cc2ccc(Cl)c(Cl)c2)Oc2ccc(NC(=O)Nc3ccc(C(F)(F)F)cc3)cc2C1=O	0.083	-0.5	49	-6
COC(=O)c1cc(OC)c(OC)cc1NC(=O)COc1ccc(Cl)cc1	.	1.0	-2	.
CC(C)NC(=O)Nc1ccc2c(c1)CC(=O)N([C@H](C)CO)C[C@@H](C)[C@H](CN(C)C(=O)Nc1ccc3c(c1)OCO3)O2	-0.19	-0.6	2	.
C[C@@H]1CN([C@@H](C)CO)C(=O)Cc2cc(NC(=O)Nc3cccc4ccccc34)ccc2O[C@@H]1CN(C)C(=O)Nc1ccc(F)cc1	0.14	-2.1	0	-16
C[C@H](CO)N1C[C@H](C)[C@H](CN(C)S(=O)(=O)c2cn(C)cn2)Oc2ccc(NC(=O)C3CCCCC3)cc2CC1=O	0.037	0.0	2	30
C[C@H](CO)N1C[C@H](C)[C@H](CN(C)Cc2ccc(-c3ccccc3)cc2)Oc2ccc(NC(=O)Nc3cccc4ccccc34)cc2CC1=O	-0.23	0.8	-5	.
CO/C(N)=N/C(=S)Nc1ccccc1	0.02	1.6	-40	.
C[C@@H]1CN([C@H](C)CO)C(=O)c2cccc(NC(=O)Nc3ccc(F)cc3)c2O[C@@H]1CN(C)Cc1ccc(C(F)(F)F)cc1	0.2	-0.1	5	-14
O=C(CSc1nnc(COc2ccccc2)o1)Nc1ccccc1	0.16	0.1	6	-1
CNC[C@H]1Oc2c(NC(=O)c3ccc(-c4nccs4)cc3)cccc2C(=O)N([C@@H](C)CO)C[C@H]1C	-0.96	1.5	-24	-3

Overlap with the part before: four compounds, then new ones.
mol	YB-1 expr inh	PD-1 reverse act	MITF inh	Shh pathway inh
CO/C(N)=N/C(=S)Nc1ccccc1	0.02	1.6	-40	.
C[C@@H]1CN([C@H](C)CO)C(=O)c2cccc(NC(=O)Nc3ccc(F)cc3)c2O[C@@H]1CN(C)Cc1ccc(C(F)(F)F)cc1	0.2	-0.1	5	-14
O=C(CSc1nnc(COc2ccccc2)o1)Nc1ccccc1	0.16	0.1	6	-1
CNC[C@H]1Oc2c(NC(=O)c3ccc(-c4nccs4)cc3)cccc2C(=O)N([C@@H](C)CO)C[C@H]1C	-0.96	1.5	-24	-3
C[C@H](CO)N1C[C@H](C)[C@H](CN(C)C)Oc2ccc(NC(=O)Nc3ccccc3)cc2C1=O	0.018	1.1	5	-42
C[C@@H]1CN([C@H](C)CO)C(=O)Cc2cc(NC(=O)Cc3ccccc3)ccc2O[C@@H]1CN(C)Cc1ccc(Oc2ccccc2)cc1	0.012	-4.6	3	32
NC(=O)CSc1nnc(-c2cccnc2)s1	.	1.0	-24	.
O=C(O)C1CCC(c2ccc(-c3ccccc3)cc2)CC1 (centres undefined)	-0.013	0.1	-35	.
C[C@@H]1CN([C@H](C)CO)C(=O)c2cccc(N(C)C)c2O[C@H]1CN(C)Cc1ccc2c(c1)OCO2	0.24	.	3	-1
C[C@@H]1CCCCO[C@H](CN(C)Cc2ccc(C(F)(F)F)cc2)[C@@H](C)CN([C@H](C)CO)C(=O)c2cc(NC(=O)C3CCCCC3)ccc2O1	-0.5	-4.6	20	66*
C[C@@H]1CN([C@H](C)CO)C(=O)c2cccc(NS(=O)(=O)c3ccc(F)cc3)c2O[C@@H]1CN(C)CC1CCCCC1	-0.35	0.7	-5	?
N#Cc1c(-c2cccs2)cc(-c2ccccc2)nc1OCC(=O)c1ccccc1	-0.072	0.8	-13	.
C[C@@H]1CN([C@H](C)CO)C(=O)c2cc(NS(=O)(=O)c3ccccc3)ccc2O[C@H]1CN(C)Cc1ccccc1	-0.24	.	1	.
O=[N+]([O-])c1ccccc1S(=O)(=O)N1CCN(S(=O)(=O)Cc2ccccc2)CC1	.	3.1	-13	.
Cc1ccc(NC(=O)CSc2nnc(-c3cccnc3)n2-c2ccc(Br)cc2)cc1F	.	1.8	-19	.
C[C@@H]1CN([C@H](C)CO)C(=O)Cc2cc(NS(C)(=O)=O)ccc2O[C@H]1CN(C)Cc1ccccc1	-0.18	.	6	-26
C[C@@H]1CN([C@@H](C)CO)C(=O)Cc2cc(NC(=O)c3ccncc3)ccc2O[C@@H]1CN(C)Cc1ccncc1	0.031	-0.1	-5	42
COc1c(O)c(O)cc2ccc3cccc(O)c3c12	-2.6	0.2	5	-26
C[C@H](CO)N1C[C@H](C)[C@H](CN(C)Cc2ccncc2)Oc2ccc(NC(=O)NC3CCCCC3)cc2C1=O	0.082	-0.3	8	-9
C[C@H](CO)N1C[C@H](C)[C@@H](CN(C)S(C)(=O)=O)Oc2ccc(NS(=O)(=O)c3cccs3)cc2C1=O	0.025	-0.3	-2	-15
CC(C)NC(=O)N(C)C[C@@H]1Oc2ccc(NS(C)(=O)=O)cc2CC(=O)N([C@H](C)CO)C[C@@H]1C	0.17	1.7	0	1
O=C(Cn1cnc2sc3c(c2c1=O)CCCC3)Nc1ccccc1Br	.	-1.9	-4	.
COC(C(=O)Nc1ccccc1C(=O)N1CCOCC1)c1ccccc1 (centres undefined)	.	1.1	-5	.
Cc1oc2c(c1C(=O)NCCc1ccccc1)C(=O)c1ccccc1C2=O	-0.34	0.0	3	-17
COc1ccc(NC(=O)Nc2ccc3c(c2)CC(=O)N([C@H](C)CO)C[C@H](C)[C@H](CN(C)C(=O)Nc2ccccc2)O3)cc1	-0.42	1.7	-18	5
C[C@@H]1CN([C@@H](C)CO)C(=O)Cc2cc(NS(=O)(=O)c3ccc(Cl)cc3)ccc2O[C@@H]1CN(C)CC1CCCCC1	0.028	-5.9	-9	-3
Cn1c(CN2CCOCC2)nnc1SCC(=O)Nc1ccc2c(c1)OCCO2	.	2.8	-35	.
C[C@@H]1CN([C@H](C)CO)C(=O)Cc2cc(NS(=O)(=O)c3ccc(F)cc3)ccc2O[C@H]1CN(C)CC1CC1	0.47	0.9	0	-50
CNC[C@H]1Oc2ccc(N(C)C)cc2CC(=O)N([C@H](C)CO)C[C@H]1C	-0.18	0.1	3	.
COC(=O)C1=C(C)N=C2SC(C#N)=C(N)N2C1c1cccs1 (centres undefined)	-0.11	-1.2	-15	30
COc1ccc(NC(=O)N(C)C[C@@H]2Oc3ccc(NC(=O)CCC(F)(F)F)cc3C(=O)N([C@H](C)CO)C[C@H]2C)cc1	0.38	0.6	-7	-18
Cc1noc(C)c1NC(=O)N(C)C[C@H]1Oc2c(NC(=O)Nc3ccccc3)cccc2C(=O)N([C@@H](C)CO)C[C@H]1C	0.64	1.5	-11	-6
Cn1c(SCC(=O)NCCO)nc2ccccc2c1=O	.	0.7	-19	.
C[C@@H]1CN([C@H](C)CO)C(=O)c2cccc(NC(=O)Nc3ccc4c(c3)OCO4)c2O[C@@H]1CN(C)S(=O)(=O)c1ccc(F)cc1	0.14	-2.3	-32	-6
CNC[C@@H]1Oc2ccc(NC(=O)Cc3cn(C)c4ccccc34)cc2CC(=O)N([C@H](C)CO)C[C@@H]1C	0.093	1.9	3	-10
Cc1cc(C(=O)Nc2cccc3c2O[C@@H](CN(C)C(=O)NC2CCCCC2)[C@@H](C)CN([C@@H](C)CO)C3=O)n(C)n1	0.61	0.0	-12	21
COc1ccc(S(=O)(=O)Nc2ccc3c(c2)C(=O)N([C@H](C)CO)C[C@H](C)[C@H](CN(C)S(C)(=O)=O)O3)cc1	-0.018	0.6	-2	-13
O=C(O)CSCC(=O)N1CCCN(c2ccc(C(F)(F)F)cn2)CC1	-0.48	-0.3	-2	.
C[C@H](CO)N1C[C@H](C)[C@H](CN(C)C(=O)Nc2ccccc2)Oc2c(NC(=O)NC3CCCCC3)cccc2C1=O	0.54	.	7	-60
C[C@@H]1CN([C@H](C)CO)C(=O)c2cc(NS(=O)(=O)c3cccs3)ccc2O[C@@H]1CN(C)Cc1ccc(Oc2ccccc2)cc1	-0.13	.	13	45
O=C(COc1ccc([N+](=O)[O-])cc1)Nc1ccc2oc(-c3cccc(Cl)c3)nc2c1	.	-0.9	-26	.
CC(=O)Nc1cccc(Cn2cccn2)c1	.	2.6	4	.
Cn1c(=O)c2cnc(-c3ccccc3)nc2n(C)c1=O	-0.31	0.9	2	-8
C[C@@H]1CN([C@H](C)CO)C(=O)c2cccc(NC(=O)C3CCOCC3)c2O[C@H]1CN(C)C(=O)Nc1ccc(C(F)(F)F)cc1	-0.37	1.1	5	15
COc1ccc(C2(O)c3ccccc3NC(=O)C2O)cc1 (centres undefined)	0.32	0.8	24	-47
Cc1noc(C)c1S(=O)(=O)Nc1ccc2c(c1)C(=O)N([C@@H](C)CO)C[C@@H](C)[C@@H](CN(C)C(=O)Nc1cccc3ccccc13)O2	0.52	-0.2	-8	-8
COc1ccc(CN(C)C[C@@H]2Oc3c(NC(=O)Nc4ccc(C(F)(F)F)cc4)cccc3C(=O)N([C@@H](C)CO)C[C@@H]2C)cc1	-0.029	.	-9	-23
Cc1noc(C)c1NC(=O)Nc1ccc2c(c1)CC(=O)N([C@H](C)CO)C[C@@H](C)[C@H](CN(C)CC1CC1)O2	0.1	.	3	-20
COc1ccc(OC)c(-c2cc(C(=O)NCCc3ccccc3OC)c3ccccc3n2)c1	.	-4.2	29	.
O=C(CSc1nnc2sc3ccccc3n12)Nc1ccc(Cl)cc1	.	4.1	10	.
C[C@H]1CN([C@@H](C)CO)C(=O)c2cccc(NC(=O)Nc3cccc4ccccc34)c2O[C@@H]1CN(C)C(=O)Nc1cccc2ccccc12	0.59	-3.2	5	21
CCCn1c2ccccc2c2nnc(SCC(=O)N3c4ccccc4Sc4ccccc43)nc21	.	-0.4	-54	.
C[C@@H]1CN([C@H](C)CO)C(=O)c2cc(NC(=O)c3ccncc3)ccc2O[C@@H]1CN(C)C(=O)Nc1ccc(C(F)(F)F)cc1	-0.047	.	3	6
CCc1nc(OCc2ccco2)c2sc3nc4c(cc3c2n1)COC(C)(C)C4	.	-3.0	25	.

Fetched one by one from above (two):
mol	YB-1 expr inh	PD-1 reverse act	MITF inh	Shh pathway inh
O=C(CSc1nnc2sc3ccccc3n12)Nc1ccc(Cl)cc1	.	4.1	10	.
CCCn1c2ccccc2c2nnc(SCC(=O)N3c4ccccc4Sc4ccccc43)nc21	.	-0.4	-54	.

Following part
mol	YB-1 expr inh	PD-1 reverse act	MITF inh	Shh pathway inh
Cc1ccc(C)c(NC(=O)CSc2nnnn2-c2ccc(C(=O)O)cc2)c1	.	-1.1	-11	.
Cn1c(SCC(=O)Nc2sc3c(c2C#N)CCCC3)nnc1-c1ccc(Br)cc1	.	2.2	14	.
COc1ccc(NC(=O)NCCCN2CCCC2=O)cc1	.	2.2	-14	.
C[C@@H]1CN([C@H](C)CO)C(=O)c2cccc(NC(=O)CCCCCC(=O)Nc3ccccc3N)c2O[C@H]1CN(C)C(=O)NC1CCCCC1	-0.35	0.9	-7	.
C[C@H]1CN([C@@H](C)CO)C(=O)Cc2cc(NS(C)(=O)=O)ccc2O[C@H]1CN(C)Cc1ccc2c(c1)OCO2	0.087	1.0	8	-16
C[C@H]1CN([C@@H](C)CO)C(=O)c2cc(NS(=O)(=O)c3cccs3)ccc2O[C@@H]1CN(C)C(=O)Nc1ccc2c(c1)OCO2	-0.21	2.2	0	.

Screening data (PubChem)

Some of the compounds tested, so the mix of outcomes need not match the whole.
